PINK1 expr mod: PINK1 expression modulation; PINK1 immunofluorescence, high-content cytometry, 24 h; Potency, µM (highest dose often 76.6 µM), inactives show top-dose activation (PINK1 increase), hits mostly activators; 410,000 compounds, 0.2% hits; AID 624263; active = well fitted activation curve with a large enough effect; inconclusive = small, poorly fitted or top-dose-only effect; inactive = flat fitted curve, though single readings scatter; cell line not stated here;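 note: potency is the fitted concentration of half-maximal effect; % of control where 0% means no effect; nearly all actives have a fitted effect of over 65% in size; a mitochondrial uncoupler was the plate control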
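Compound titrations (5 concentrations, 24 h) on a stable cell line; DMSO and CCCP controls. Endpoint: fixed-cell PINK1 immunofluorescence with mitochondrial, cell and nuclear markers, scanned by microplate cytometer.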
TRPML1 ag: agonists of human TRPML1 channel | Q9GZU1 | TRPML1-expressing cells, Ca2+ dye fluorescence, FDSS; host cell line not named in the record; reference of the full effect not given here | activation, % (concentration not given with the values) | 410,000 compounds, 0.12% hits; in the data active = activation above about 50%; inconclusive = about 30% to 50%; inactive = below about 30%; note: 0% is about no effect; the text of the record puts the active cut at 80%
Target sequence (Q9GZU1 whole entry, looked up): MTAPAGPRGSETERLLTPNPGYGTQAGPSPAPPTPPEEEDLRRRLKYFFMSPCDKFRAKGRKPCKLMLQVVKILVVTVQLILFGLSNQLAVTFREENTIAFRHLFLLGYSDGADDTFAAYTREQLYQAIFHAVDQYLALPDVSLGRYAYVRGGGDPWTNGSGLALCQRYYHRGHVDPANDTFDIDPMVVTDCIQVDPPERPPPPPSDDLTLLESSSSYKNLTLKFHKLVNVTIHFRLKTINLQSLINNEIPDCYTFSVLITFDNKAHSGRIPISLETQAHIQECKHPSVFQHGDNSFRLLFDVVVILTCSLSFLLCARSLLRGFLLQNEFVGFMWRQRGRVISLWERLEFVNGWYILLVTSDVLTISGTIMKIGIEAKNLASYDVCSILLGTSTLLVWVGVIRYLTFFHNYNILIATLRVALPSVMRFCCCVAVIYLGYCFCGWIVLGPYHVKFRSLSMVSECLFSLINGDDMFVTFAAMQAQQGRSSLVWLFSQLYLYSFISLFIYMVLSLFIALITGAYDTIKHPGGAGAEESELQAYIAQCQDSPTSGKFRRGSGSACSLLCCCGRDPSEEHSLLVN
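TRPML1-DL cells, Tet-induced overnight (~16 h, 37 degrees C), loaded 45-90 min at room temperature with Ca8 no-wash calcium dye plus quencher. FDSS fluorescence: 10 s baseline, compound pin-transfer, 110 s agonist read, then EC80 54-4 (4uM final) and 110 s antagonist read.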
D2 potentiator: potentiates the human D2 dopamine receptor allosterically. P14416. DiscoveRx D2 beta-arrestin cells, luminescence, 90 min; 100% = 57 uM dopamine signal. potentiation, % (concentration not given with the values). 360,000 compounds, 0.23% hits. AID 624464; active = potentiation of 50% or more; inconclusive = 30% to 50%; inactive = 30% or less;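 note: tested on top of an EC20 dose of dopamine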
Target sequence (P14416 whole entry, looked up): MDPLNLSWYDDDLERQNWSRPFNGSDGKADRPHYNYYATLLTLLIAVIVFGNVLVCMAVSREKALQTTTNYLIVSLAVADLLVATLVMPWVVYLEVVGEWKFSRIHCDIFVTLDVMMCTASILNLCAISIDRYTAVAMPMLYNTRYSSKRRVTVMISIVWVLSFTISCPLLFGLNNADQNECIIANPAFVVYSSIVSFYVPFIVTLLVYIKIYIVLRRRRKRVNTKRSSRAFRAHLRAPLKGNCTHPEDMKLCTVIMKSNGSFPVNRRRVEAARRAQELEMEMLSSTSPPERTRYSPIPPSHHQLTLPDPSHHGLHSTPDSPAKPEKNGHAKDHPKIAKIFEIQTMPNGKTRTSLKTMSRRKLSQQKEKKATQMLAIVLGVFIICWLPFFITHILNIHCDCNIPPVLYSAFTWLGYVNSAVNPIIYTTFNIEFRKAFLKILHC
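PathHunter beta-arrestin assay in DiscoveRx D2 cells. Compounds were added with an EC20 of dopamine (50 nM final) for 90 min at 37 deg C. Luminescence was read 1 h after detection reagent, with 57 uM dopamine as the EC100 control.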
D2 ag: activates the human D2 dopamine receptor; P14416; DiscoveRx PathHunter D2 beta-arrestin, luminescence, 90 min; 100% = 57 uM dopamine signal; activation, % (no concentration beside the values); 360,000 compounds, 0.084% hits; AID 624465; in the data active = activation above about 40%; inconclusive = about 15% to 40%; inactive = below about 15%; note: compound concentration not given in the record; the text of the record calls up to 30% inactive
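DiscoveRx PathHunter D2 beta-arrestin cells (2,100/well) attached overnight, then compound-stimulated 90 min at 37 C in HBSS/10 mM HEPES/0.1% Tween-20 buffer; beta-galactosidase complementation read by luminescence after 1 h at ambient temperature. Dopamine 57 uM final (EC100) as control.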
CtBP-E1A inh: inhibitors of CtBP/E1A interaction | activity change, % (no concentration beside the values) | AlphaScreen GST-E1A/His-CtBP binding, 1536-well; hits give low values; control for the full effect not named in the record | AID 651724 | 340,000 compounds, 0.49% hits; in the data active means activity change below about -65%; inconclusive means about -30% to -65%; inactive means above about -30%; note: % is set by controls: 0 for no effect and ±100 for the full control effect
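AlphaScreen with 125 nM GST-E1A and 125 nM His-CtBP (5X stocks) in Tris pH 8.0, 300 mM NaCl, BSA, Tween 20, TCEP. Compounds preincubated 2 h at 37 deg C, then glutathione donor/nickel acceptor beads added for 1 h at 37 deg C in dark.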
Six1-Eya2 inh: blocks human Six1 binding to Eya2. Q15475+O00167. AlphaScreen GST-Six1/His-Eya2 binding, biochemical; hits give low values; control for the full effect not named in the record. activity change, % (test concentration not listed). 360,000 compounds, 0.56% hits; in the data active = activity change below about -65%; inconclusive = about -30% to -65%; inactive = above about -30%; note: % is set by controls: 0 for no effect and ±100 for the full control effect
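Homogeneous AlphaScreen proximity assay pairing GST-Six1 with His-tagged Eya2 (added as 5X mix: 250 nM and 500 nM) in 50 mM Tris pH 8.0, 300 mM NaCl, 1 mM TCEP. Glutathione donor and nickel acceptor beads; 1 h, 37 °C, dark.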
* hit, by the source's call; ? = inconclusive; · = not tested or not shown; [ ] = dose if it differs, or a comment.

Below each compound: PINK1 expr mod | TRPML1 ag | D2 potentiator | D2 ag | CtBP-E1A inh | Six1-Eya2 inh
#1 NC(=O)c1c(NC(=O)CCCn2cnc([N+](=O)[O-])n2)sc2c1CCCC2
    -1.4% | 0.1 | -7 | -0.3 | -5 | -11
#2 Cc1ccc(N2C(=O)N3[C@@H]4c5ccccc5OC[C@@H]4[C@@H](c4ccccc4)[C@@]3(C)C2=O)cc1
    0.1% | -0.2 | -4 | -5.5 | -6 | -9
#3 O=C(O)c1ccc2c(c1)C(=O)N(c1ccc(Cl)cn1)C2=O
    1.4% | -0.6 | -3 | -6.0 | 2 | 2
#4 Cc1cc(NS(=O)(=O)c2ccc(NC(=O)COc3ccccc3C(C)C)cc2)no1
    1.5% | 0.7 | -6 | -3.5 | 0 | -1
#5 CC(C)(C)c1ccc(/C=C(\c2nc3ccccc3[nH]2)S(=O)(=O)c2ccccc2)cc1
    -1.2% | · | -8 | -3.4 | -7 | -13
#6 CC(C(=O)N=Nc1c(O)[nH]c2ccccc12)n1cnc2ccccc2c1=O (configuration not stated)
    1.0% | -0.2 | 3 | -5.4 | -7 | -1
#7 CCCN(CCC)CCNC(=O)C1CCN(Cc2nc(-c3ccc(Cl)cc3)oc2C)CC1
    -0.5% | -0.1 | -4 | 1.7 | -7 | 9
#8 COc1ccc(-c2cc3c(c4c2ccn4C)C2CCC3O2)cn1 (configuration not stated)
    0.6% | -0.6 | -3 | 4.9 | -14 | -12
#9 C=CCN(CC=C)C(=O)c1ccc(OC2CCN(C(C)=O)CC2)c(OC)c1
    -1.1% | 0.6 | -2 | 0.7 | 13 | -3
#10 Cc1ccc(NC(=O)C2CCCN2C(=O)OCc2ccccc2)cc1C (configuration not stated)
    2.8% | -0.2 | -8 | -2.3 | 11 | 11
#11 CC(=O)c1cccc(NC(=O)CSC(=O)c2ccccc2)c1
    -1.2% | -0.8 | -3 | -5.7 | -5 | -2
#12 CCOC(=O)CN1CC(C)(C)N(CC(=O)OCC)CC1(C)C
    3.9% | -0.5 | -8 | -1.4 | -3 | 4
#13 CN(CC(=O)N1CCN(C2CCCCC2)CC1)S(=O)(=O)c1cccc2nsnc12
    5.1%[38.3 µM] | -0.5 | -9 | -1.3 | -2 | 1
#14 CCOCCCNc1nc2c(-c3ccccc3)nnn2c2ccccc12
    -0.1% | -0.6 | -3 | -5.8 | 2 | 9
#15 O=C(COC(=O)c1c(F)cccc1F)NCCNC(=O)COC(=O)c1c(F)cccc1F
    2.3% | -1.2 | -5 | -5.0 | -7 | 3
#16 CCc1ccccc1NC(=O)COC(=O)c1c(C)nsc1NC
    14% | -0.3 | -3 | -5.0 | 4 | 0
#17 Cc1ccc2c(c1)cc(C(=O)N[C@@H](Cc1ccccc1)C(=O)O)n2C
    -0.2% | 0.8 | 0 | -2.6 | -13 | -6
#18 COc1ccc(-n2nnnc2CNC(=O)c2ccc(S(=O)(=O)N3CCOCC3)cc2)cc1
    1.5% | 1.5 | -2 | -3.6 | -6 | 5
#19 Oc1ccc(-c2nncn2-c2ccccc2)cc1
    0.5% | 1.0 | -3 | -3.8 | · | -3
#20 CC(=O)N1CCCC(C(=O)c2ccc3c4c(cccc24)CC3)C1 (configuration not stated)
    3.1% | 0.4 | -9 | 3.9 | · | 5
#21 CCCCNC(=O)N1CCN(C/C=C/c2ccccc2)CC1
    0.3% | -0.1 | -4 | -3.9 | 11 | 4
#22 O=C(COC(=O)c1ccc(Br)o1)NC1CCCCC1
    2.5% | -0.2 | -14 | 1.2 | 0 | 11
#23 CCOC(=O)N1CCC(=NNC(N)=O)CC1
    1.8% | -0.6 | -4 | 1.5 | -10 | -9
#24 CCOc1ccc(S(=O)(=O)N2CCN(C(=S)NCc3ccco3)CC2)cc1
    3.8% | 0.6 | 6 | -0.3 | -10 | -24
#25 COc1ccc2oc(C(=O)OCC(=O)NCc3ccc(OC)c(OC)c3)c(C)c2c1
    3.2% | 3.2 | -2 | 2.7 | 0 | -1
#26 COC(=O)C1=C(C(=O)OC)C(c2ccc(OC)c(OC)c2)c2sc(=O)[nH]c2S1 (configuration not stated)
    1.3% | 0.0 | 11 | ? | 2 | 2
#27 O=C(C1CCN(S(=O)(=O)c2cccc3cccnc23)CC1)N1CCN(c2ccccc2)CC1
    1.4% | -0.6 | -6 | -4.8 | -2 | -8
#28 C[C@H](NS(=O)(=O)c1ccc(Cl)cc1)C(=O)OCC(=O)c1ccc[nH]1
    0.6% | 0.2 | -5 | -0.4 | -23 | -8
#29 CN(CC(=O)Nc1ccccc1C(=O)Nc1ccccc1)C1CCCCC1
    1.3% | 0.5 | -1 | 0.3 | 16 | 0
#30 CCOC(=O)c1cc2c(C)n(-c3ccc(C)cc3)c(C)c2ccc1=O
    0.6% | 1.6 | -27 | 2.2 | -16 | -17
#31 Cc1ccc2nc(C3CCCCC3)c(Cc3ccccc3)n2c1
    ? | 1.4 | -14 | -7.0 | -6 | -8
#32 COCC(=O)N1C[C@H]2CON(C)[C@H]2C[C@H]1c1cccc(-c2ccccc2OC)c1
    2.2% | -0.2 | 2 | -9.2 | 2 | 1
#33 O=C(NCc1ccc(F)c(F)c1)C1CCC(=O)N(CC2CCCCC2)C1 (configuration not stated)
    -2.0% | 0.7 | -3 | -1.7 | 0 | 10
#34 CCOC(=O)c1c(C(=O)OCC)c(C)n(N2C(=O)CSC2=S)c1C
    0.4% | ? | -26 | -3.9 | -4 | -1
#35 COc1ccc(C2=C(Nc3ccc(C)cc3)c3ccccc3C2=O)cc1
    12% | 3.4 | 7 | 1.1 | -11 | -28
#36 COc1ccc(F)cc1S(=O)(=O)NCc1ccccc1
    1.6% | 1.0 | -3 | 0.1 | 2 | 0
#37 O=C(Nc1ccccc1-c1ccccc1)c1cccc(C(F)(F)F)c1
    8.9% | 4.4 | -13 | 1.6 | 17 | 24
#38 Cc1nn(-c2ccccc2)c(Cl)c1C(=O)OCC(=O)NCCc1ccccc1
    -0.1% | 3.4 | -18 | -1.8 | 7 | 7
#39 COc1cccc(-n2nc(C(=O)N3CC(C)CC(C)C3)c3ccccc3c2=O)c1 (configuration not stated)
    0.1%[38.3 µM] | 0.8 | -5 | -1.7 | 47 | 0
#40 Cc1ncsc1CCOC(=O)c1cccnc1
    -0.9%[38.3 µM] | 0.4 | 4 | 2.5 | 7 | 3
#41 O=C(COC(=O)c1ccc[n+]([O-])c1)Nc1ccc([N+](=O)[O-])cc1Cl
    1.1% | 0.8 | 1 | -0.5 | -3 | 5
#42 CCN(C[C@H]1N[C@@](C)(C(=O)OC)[C@H]2C(=O)N(Cc3ccccc3)C(=O)[C@@H]12)S(=O)(=O)c1ccc(OC)cc1
    1.2% | -1.1 | -5 | -0.6 | 0 | -3
#43 Cc1ccc2cc(S(=O)(=O)NCCCC(=O)O)ccc2c1
    -1.6% | 0.9 | 7 | -2.8 | -3 | 13
#44 CN1CCN(S(=O)(=O)c2cccc(C(=O)Nc3cccc(S(N)(=O)=O)c3)c2)CC1
    1.7% | 3.9 | -3 | 1.8 | 7 | -2
#45 Cc1ccc(NC(=O)CCCC(=O)OC(C)C(=O)c2ccccc2)cc1 (configuration not stated)
    -0.9% | 1.6 | 2 | 8.1 | 7 | 3
#46 Cc1ccc2occ(/C=N/NC(=O)c3ccc(Cl)cc3)c(=O)c2c1
    1.2% | 0.0 | -28 | 1.4 | 10 | 6
#47 O=C(NNC(=S)NC1CCCCC1)c1ccc(Cl)s1
    6.0% | -1.2 | -11 | -4.5 | 0 | -7
#48 CCC1(c2ccc(F)cc2)NC(=O)N(CC(=O)Nc2ccc(C)c(S(=O)(=O)N3CCOCC3)c2)C1=O (configuration not stated)
    13% | 0.7 | 4 | -1.5 | 0 | 8
#49 O=C(O)Cn1ccnc1
    0.2% | 0.5 | 2 | -2.5 | 1 | -3
#50 COc1cccc(C(=O)N(Cc2cc3cc(C)ccc3[nH]c2=O)CC2CCCO2)c1 (configuration not stated)
    -1.0% | 0.8 | -3 | -2.5 | -11 | 1
#51 Cc1c(Br)c(C(=O)NCc2cc3cc(Cl)ccc3[nH]2)nn1C
    1.9% | 0.5 | -29 | 0.0 | -3 | -10
#52 COc1ccc(-c2nc(S(=O)(=O)c3ccc(C)cc3)c(N3CCCC3)o2)cc1
    0.1% | -0.4 | -6 | -3.2 | -20 | -3
#53 O=C(N/C=C/c1ccc(Cl)cc1)NCc1ccc(Cl)cc1
    0.8% | -1.2 | -8 | -0.5 | 7 | -9
#54 O=C(NC1=NCCS1)c1sc2ccccc2c1Cl
    6.0% | -1.0 | -11 | -2.9 | -22 | 9
#55 O=C(NCCOc1ccccc1)c1cccc2c1C(=O)c1ccc(Cl)cc1S2(=O)=O
    3.7% | 1.4 | 6 | 1.6 | -12 | -12
#56 CN(C)Cc1c(O)c(Cl)cc2c3c(c(=O)oc12)CCCC3
    2.3% | -0.3 | 6 | 1.5 | -2 | 1

Copied from above: entries 45 to 54
Below each compound: PINK1 expr mod | TRPML1 ag | D2 potentiator | D2 ag | CtBP-E1A inh | Six1-Eya2 inh
#45 Cc1ccc(NC(=O)CCCC(=O)OC(C)C(=O)c2ccccc2)cc1 (configuration not stated)
    -0.9% | 1.6 | 2 | 8.1 | 7 | 3
#46 Cc1ccc2occ(/C=N/NC(=O)c3ccc(Cl)cc3)c(=O)c2c1
    1.2% | 0.0 | -28 | 1.4 | 10 | 6
#47 O=C(NNC(=S)NC1CCCCC1)c1ccc(Cl)s1
    6.0% | -1.2 | -11 | -4.5 | 0 | -7
#48 CCC1(c2ccc(F)cc2)NC(=O)N(CC(=O)Nc2ccc(C)c(S(=O)(=O)N3CCOCC3)c2)C1=O (configuration not stated)
    13% | 0.7 | 4 | -1.5 | 0 | 8
#49 O=C(O)Cn1ccnc1
    0.2% | 0.5 | 2 | -2.5 | 1 | -3
#50 COc1cccc(C(=O)N(Cc2cc3cc(C)ccc3[nH]c2=O)CC2CCCO2)c1 (configuration not stated)
    -1.0% | 0.8 | -3 | -2.5 | -11 | 1
#51 Cc1c(Br)c(C(=O)NCc2cc3cc(Cl)ccc3[nH]2)nn1C
    1.9% | 0.5 | -29 | 0.0 | -3 | -10
#52 COc1ccc(-c2nc(S(=O)(=O)c3ccc(C)cc3)c(N3CCCC3)o2)cc1
    0.1% | -0.4 | -6 | -3.2 | -20 | -3
#53 O=C(N/C=C/c1ccc(Cl)cc1)NCc1ccc(Cl)cc1
    0.8% | -1.2 | -8 | -0.5 | 7 | -9
#54 O=C(NC1=NCCS1)c1sc2ccccc2c1Cl
    6.0% | -1.0 | -11 | -2.9 | -22 | 9

Rows are unselected. About 1.3% of those tested had a hit in this group.
